PKA-R2B act – activators of human PKA-R2B complex. PKA-R2B holoenzyme dissociation, Cy5-IP20 fluorescence polarization; R2B truncated from residue 108, S112A mutant; 0% DMSO only, 100% 113 µM cGMP. P22694+P31323. AID 504700. activation, % at 11.4 µM. 340,000 tested, 0.079% active;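 active = activation above a cutoff set at the mean over all compounds plus 3 SD, cut at about 18% in these data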;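 note: higher means more holoenzyme dissociation and a rise in polarization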
Target sequence (P31323 whole entry, looked up, other chains not shown, the tested form may be a part): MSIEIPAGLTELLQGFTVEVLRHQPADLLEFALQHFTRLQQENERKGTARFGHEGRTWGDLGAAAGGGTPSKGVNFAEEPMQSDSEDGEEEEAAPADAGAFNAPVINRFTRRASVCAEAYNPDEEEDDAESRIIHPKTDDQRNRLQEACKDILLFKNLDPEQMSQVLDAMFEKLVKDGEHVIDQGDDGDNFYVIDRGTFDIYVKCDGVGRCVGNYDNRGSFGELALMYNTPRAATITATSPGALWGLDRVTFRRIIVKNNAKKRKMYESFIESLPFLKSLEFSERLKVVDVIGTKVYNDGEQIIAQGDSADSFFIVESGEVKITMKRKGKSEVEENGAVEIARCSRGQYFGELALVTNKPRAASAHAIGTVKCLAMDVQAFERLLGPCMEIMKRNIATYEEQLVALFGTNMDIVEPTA
PfHsp90 set2 – reduces growth (ATP signal) of yeast expressing P. falciparum Hsp90 | 310,000 tested, 0.32% active | inhibition, % at 9.4 µM | S. cerevisiae expressing PfHsp90, BacTiter-Glo ATP, 48 h; yeast lacking PDR1 and PDR3 efflux regulators;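 active = every replicate shows inhibition above about 80%, whatever the replicate mean, limit read from the data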;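 note: 0% = DMSO neutral controls and 100% = 20 µM radicicol positive controls; yeast relying on Plasmodium falciparum Hsp90 in place of its own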
PKA-R1A activ – activates the PKA-R1A holoenzyme complex; activation, % at 11.4 µM; 340,000 tested, 0.083% active; AID 504707; PKA-R1A dissociation, Cy5-IP20 fluorescence polarization; scaled: DMSO 0%, 113 µM cGMP 100%;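 active = percent activation above the mean of all tested compounds plus 3 SD, cut at about 19% in these data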;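 note: higher means more PKAc released from R1A so a rise in polarization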
Mot1-301 SUMO – inhibitors of SUMOylation pathway: yeast Mot1-301 growth rescue | S. cerevisiae Mot1-301 growth rescue, ATP luminescence, 38.5C; percent above DMSO median, 100 means doubled | growth rescue, % at 18.8 µM | 320,000 tested, 1% active | AID 2716;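 active = every valid replicate shows activation above 250% relative to neutral control wells; inactive = the rest, any valid replicate at or below 250%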;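 note: OY570 slx delta 5 strain wells were the positive control but not used for scaling; some compounds called inactive have numbers as strong as hits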
HTR5A inv ctr – inverse agonist of human HTR5A in OPRM1-OPRD1 counter-screen; P47898; HTR5A cell line, luminescence, inverse agonism; inhibition, % at 9.3 µM; 340,000 tested, 0.083% active; in the data active = inhibition mostly above about 23%, no sharp cut-off; inactive = mostly below about 18%;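 note: 0% = cells with DMSO and 100% = no-cell wells with DMSO; some compounds called inactive have numbers as strong as hits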
Tat export inh – blocks Tat-dependent protein export in E. coli. 340,000 tested, 0.036% active. inhibition, % at 10 µM. E. coli MC4100 TorA-mCherry Tat export, fluorescence;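 active = mean replicate inhibition at least 50% and at least half of replicates individually reaching 50%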;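 note: exported cargo escapes ClpAP degradation while cytoplasmic cargo is degraded and loses fluorescence; 0% = median of neutral control wells and 100% = median of NaSCN control wells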
* hit, by the source's call; nt = not tested or not shown; & = joins results of further samples.

SMILES,PKA-R2B act,PfHsp90 set2,PKA-R1A activ,Mot1-301 SUMO,HTR5A inv ctr,Tat export inh
COc1cc(CN=C(C)c2c(O)n(C)c(=O)n(C)c2=O)cc(OC)c1,2.1,-2.4,-2.3,263.9,-1.5,3.9
C=CCN1CC[C@]23c4c5ccc(O)c4O[C@H]2C(=O)CC[C@@]3(O)[C@H]1C5,2.0&-6.7,14.4&-1.7,-6.6&-2.6,-3.1&-3.1,-14.4&15.1,-1.3&-7.3
CC(=O)C1CCC2C3CCC4CC(O)CCC4(C)C3C(=O)CC12C (stereo not given),8.5,nt,-1.2,nt,0.5,-2.0
CC(C)=CCN1CC[C@@]2(C)c3cc(O)ccc3C[C@@H]1C2C (stereo not given in full),4.8,nt,-7.7,nt,1.1,-2.2
COC(=O)C1=C(c2ccccc2OCc2ccccc2)C[C@@H]2CC[C@H]1N2C(=O)NCCOc1ccccc1Cl,-6.1,0.2,-1.6,21.7,-16.8,4.0
Oc1ccc2c3c1OC1c4oc5ccccc5c4C[C@@]4(O)[C@@H](C2)N(CC2CC2)CC[C@]314 (stereo not given in full),-4.0,nt,2.4,nt,-5.3,-8.3
O=c1[nH]c2ccccc2n1C1CCN(CCCC(c2ccc(F)cc2)c2ccc(F)cc2)CC1,-5.2,12.2,3.7,95.7,13.5,-0.8
O=C1CN=C(c2ccccc2)c2cc(Cl)ccc2N1,-1.4,nt,-6.0,nt,3.4,-11.3
C=CCN1C[C@@H](C)N(C(c2ccc(C(=O)N(CC)CC)cc2)c2cccc(OC)c2)C[C@@H]1C (stereo not given in full),-2.4,-4.0,-3.0,-6.3,-21.3,0.8
C=CCN1CC[C@]23c4c5ccc(O)c4OC2C(=O)CC[C@@]3(O)C1C5 (stereo not given in full),4.2,-0.8,-13.9,6.8,8.1,-9.9
CN1CC[C@@]23CCCC[C@@H]2[C@@H]1Cc1ccc(O)cc13,2.4,-3.9,9.8,-14.6&-6.8,-3.1,-4.7
COC12CCC3(CC1C(C)(O)C(C)(C)C)[C@H]1Cc4ccc(O)c5c4[C@@]3(CCN1CC1CC1)C2O5 (stereo not given in full),-4.9,nt,0.7,nt,-10.1,-2.4

For convenience, some entries already given:
SMILES,PKA-R2B act,PfHsp90 set2,PKA-R1A activ,Mot1-301 SUMO,HTR5A inv ctr,Tat export inh
COc1cc(CN=C(C)c2c(O)n(C)c(=O)n(C)c2=O)cc(OC)c1,2.1,-2.4,-2.3,263.9,-1.5,3.9
C=CCN1CC[C@]23c4c5ccc(O)c4O[C@H]2C(=O)CC[C@@]3(O)[C@H]1C5,2.0&-6.7,14.4&-1.7,-6.6&-2.6,-3.1&-3.1,-14.4&15.1,-1.3&-7.3
CC(=O)C1CCC2C3CCC4CC(O)CCC4(C)C3C(=O)CC12C (stereo not given),8.5,nt,-1.2,nt,0.5,-2.0
CC(C)=CCN1CC[C@@]2(C)c3cc(O)ccc3C[C@@H]1C2C (stereo not given in full),4.8,nt,-7.7,nt,1.1,-2.2
COC(=O)C1=C(c2ccccc2OCc2ccccc2)C[C@@H]2CC[C@H]1N2C(=O)NCCOc1ccccc1Cl,-6.1,0.2,-1.6,21.7,-16.8,4.0
Oc1ccc2c3c1OC1c4oc5ccccc5c4C[C@@]4(O)[C@@H](C2)N(CC2CC2)CC[C@]314 (stereo not given in full),-4.0,nt,2.4,nt,-5.3,-8.3
O=c1[nH]c2ccccc2n1C1CCN(CCCC(c2ccc(F)cc2)c2ccc(F)cc2)CC1,-5.2,12.2,3.7,95.7,13.5,-0.8
O=C1CN=C(c2ccccc2)c2cc(Cl)ccc2N1,-1.4,nt,-6.0,nt,3.4,-11.3

The list is partial (hit frequency here may not be typical).
